VDR inhibitor: Inhibitors of the vitamin D receptor (VDR): qHTS; VDR-SRC2-3 peptide fluorescence polarization, 2 h; Potency, µM, without a hit: max response, negative = inhibition, actives largely listed as inhibitors; AID 504847, 2011; Vitamin D3 receptor (Homo sapiens), P11473; hit rate 0.93% among 400,000; active = well fitted inhibition curve with a large enough effect; inconclusive = small, poorly fitted or top-dose-only effect, or another doubt; inactive = no such curve, though single readings can be large or run the other way; also: series mostly up to about 120 µM
Target sequence (P11473 whole entry, looked up): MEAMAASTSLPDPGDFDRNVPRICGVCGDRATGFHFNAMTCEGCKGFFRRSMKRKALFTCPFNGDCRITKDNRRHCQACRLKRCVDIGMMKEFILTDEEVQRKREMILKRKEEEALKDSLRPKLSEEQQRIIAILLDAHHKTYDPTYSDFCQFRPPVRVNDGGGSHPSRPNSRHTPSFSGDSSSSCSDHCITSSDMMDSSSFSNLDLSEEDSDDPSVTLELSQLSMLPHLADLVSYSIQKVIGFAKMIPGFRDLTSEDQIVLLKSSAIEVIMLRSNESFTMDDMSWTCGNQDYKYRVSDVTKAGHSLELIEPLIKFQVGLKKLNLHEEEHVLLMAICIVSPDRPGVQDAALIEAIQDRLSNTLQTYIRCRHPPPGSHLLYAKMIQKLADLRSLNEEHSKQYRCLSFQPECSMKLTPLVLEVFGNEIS
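Two reagent solutions held at 4 deg C in the dark were dispensed, compounds pinned at 23 nl, and the mixture incubated 2 h at room temperature. Read-out: fluorescence polarization of VDR–SRC2-3 peptide binding.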
Numbers without * were called inactive; ? = inconclusive; [ ] = remark or other dose. % is scaled to controls: 0 for no effect and ±100 for the full control effect; potency is read from the fitted curve at half-maximal effect.

A first look (six entries):
SMILES	VDR inhibitor
CCN(CC)S(=O)(=O)c1ccc2[nH]cc(C(=O)NCCN3CCCCC3C)c(=O)c2c1 (stereo not drawn)	2%
CCOC(=O)C1(Cc2cccc(OC)c2)CCCN(CCO)C1 (stereo not drawn)	-14%
O=S(=O)(Nc1ccc(S(=O)(=O)N2CCOCC2)cc1)c1ccc(Br)cc1	7%
COc1cccc(NC(=O)C2CCN(S(=O)(=O)c3c(C)noc3C)CC2)c1	-24%
Cc1ccc(C)c(S(=O)(=O)N2CCN(C(=O)c3ccncc3)CC2)c1	13%
C=CCn1c(SCC(=O)Nc2cc(NC(C)=O)ccc2OC)nnc1-c1cccnc1	-13%

Main list, repeating the preview:
SMILES	VDR inhibitor
CCN(CC)S(=O)(=O)c1ccc2[nH]cc(C(=O)NCCN3CCCCC3C)c(=O)c2c1 (stereo not drawn)	2%
CCOC(=O)C1(Cc2cccc(OC)c2)CCCN(CCO)C1 (stereo not drawn)	-14%
O=S(=O)(Nc1ccc(S(=O)(=O)N2CCOCC2)cc1)c1ccc(Br)cc1	7%
COc1cccc(NC(=O)C2CCN(S(=O)(=O)c3c(C)noc3C)CC2)c1	-24%
Cc1ccc(C)c(S(=O)(=O)N2CCN(C(=O)c3ccncc3)CC2)c1	13%
C=CCn1c(SCC(=O)Nc2cc(NC(C)=O)ccc2OC)nnc1-c1cccnc1	-13%
O=[N+]([O-])c1ccccc1S(=O)(=O)Nc1ncccn1	27%
CC(=O)Nc1ccc(S(=O)(=O)N(C)CC(=O)OC2CCCCC2=O)cc1 (stereo not drawn)	-1%
O=S(=O)(Nc1ccc(-c2cn3c(n2)SCC3)cc1)c1ccccc1F	4%
S=C(Nc1ccc(Cl)cc1Cl)NC1CCCCC1	12%
CC1Cc2ccccc2N1C(=O)CN(C)CC(=O)Nc1ccc(OC(F)(F)F)cc1 (stereo not drawn)	-11%
Cc1ccn2cc(CCNS(=O)(=O)c3ccc4ccccc4c3)nc2c1	-4%
O=C1c2ccccc2C(=O)C12OC(c1ccccc1)C1(C(=O)c3ccccc3C1=O)C2c1ccc([N+](=O)[O-])cc1 (stereo not drawn)	5%
CCOC(=O)N1CCN(C(=O)C2CCN(c3ncnc4c3sc3cccc(F)c34)CC2)CC1	-6%
Cc1c(O)c(CN2CCCCC2)cc2c1oc(=O)c1ccccc12	3%
C[C@@H](O)[C@H]1O[C@]2(C)CCC[C@H]1O2	0%
Cn1nnnc1SCC(=O)NNC(=O)c1ccc(Cl)cc1	-3%
Cc1onc(-c2c(F)cccc2Cl)c1C(=O)N1CCc2ccccc21	9%
Cc1nc2ccn(Cc3cccnc3)c(=O)c2cc1C(=O)N1CCN(c2ccc(F)cc2)CC1	-4%
O=c1oc(-c2ccccc2F)nc2c1cnn2-c1ccccc1	1%
COc1ccccc1-c1c(C)nn2c(N3CCCCCC3)cc(C)nc12	7%
COc1ccc([N+](=O)[O-])cc1/C=N/NC(=O)CNC(=O)c1cccc(F)c1	-6%
Cc1cccc(CN2[C@@H](CC(C)C)COCCS2(=O)=O)c1	-7%
CCOC(=O)c1ccc(NC(=O)CCC(CC)C(=O)O)cc1 (stereo not drawn)	15%
COc1cc2c(cc1OC)CN(C(=O)CN1C(=O)c3ccc([N+](=O)[O-])cc3C1=O)CC2	2%

(list continues)
SMILES	VDR inhibitor
CN(CC(=O)Nc1c(Cl)cccc1Cl)C(=O)Cc1ccsc1	-24%
Cc1cc(=O)n2nc(N3CCC(C(=O)Nc4ccc(C)c(Cl)c4)CC3)sc2n1	3%
Cc1c(Cl)cccc1-n1ncc(C(=O)Nc2ccc3c(c2)OCCO3)c1C1CCN(C(=O)OC(C)(C)C)CC1	2%
CC(=O)Nc1sc(N/N=C\c2ccccc2)nc1-c1cccs1	32µM*
CC(=O)Nc1ccc(S(=O)(=O)Nc2ccc(S(=O)(=O)N3CCCCCC3)cc2)cc1	-2%
COc1ccc(NC(=O)Cn2nnc3sc4c(c3c2=O)CCC(C)C4)c(OC)c1 (stereo not drawn)	-10%
CSc1ccccc1C(=O)C1CCCN(S(=O)(=O)c2c(C)noc2C)C1 (stereo not drawn)	-9%
COc1ccccc1Cc1nc(-c2cccnc2)no1	-3%
N#CC1=C(N)c2ccccc2CC12CCCCC2	-13%
Cc1ccc(S(=O)(=O)N2C[C@@H]3[C@H]4CC[C@H](C4)[C@@H]3[C@@H](C)C2CC(=O)c2ccccc2)cc1 (stereo partly drawn)	?
C=CC[C@H](CC(=O)NCCO)C(=O)N[C@@H](COC(=O)[C@@H](CC=C)Cc1ccc(F)cc1)Cc1c[nH]c2ccccc12	-10%
CCc1nc2ccccc2n(CC)c1=O	12%
CCc1ccc(NC(=O)Cn2c(=O)oc3cc(S(=O)(=O)N4CCOCC4)ccc32)cc1	-1%
CCOC(=O)c1ccccc1NC(=O)CSc1ccc(-c2sc(C)nc2C)nn1	-15%
CCC(=O)Nc1ccc(C(=O)OCc2ccc(Cl)c(Cl)c2)cc1	-9%
CCOc1ncccc1C(=O)OCC(=O)c1cccs1	23%
C=CCn1c(SCC#N)nc2cc(Cl)ccc2c1=O	-17%
COc1ccc(C(O)c2coc3ccc(O)c(CN(C)C)c23)cc1 (stereo not drawn)	1%
Cc1ccc(OCCNC(=O)c2cc(-n3cnnc3)ccc2Cl)cc1C	8%
COc1ccc(CN(Cc2ccccc2)C(=O)CN2CCN(C)CC2)cc1COc1ccc(NC(C)=O)cc1	-9%
NC(=O)c1ccc2c(=O)n3c(-c4cc(Cl)c(N)c(Cl)c4)csc3nc2c1	-18%
CCCCc1nn2c(=O)cc(COC(=O)c3cccc(NC(=O)COc4ccccc4)c3)nc2s1	1%
COc1cc(/C=C2/S/C(=N/S(=O)(=O)c3ccccc3)NC2=O)c([N+](=O)[O-])cc1OC	-8%
OCC[C@@H]1C[C@H](O)[C@@H](O)[C@@]2(Cc3ccccc3O2)O1	15%
Cc1cn(C)c(CC(=O)N2CCN(c3ccccc3F)CC2)c1C(=O)O	8%

Next entries
SMILES	VDR inhibitor
COc1cc(NC(=O)C(CC(C)C)N2Cc3ccccc3C2=O)cc(OC)c1 (stereo not drawn)	10%
Cc1cc(C)c(C(=O)C(C)OC(=O)Cc2n[nH]c(=O)c3ccccc23)cc1C (stereo not drawn)	-10%
C=CCn1c(SCc2nc3ccccc3c(=O)[nH]2)nnc1-c1cc2cc(Cl)ccc2o1	6%
CC1CN(C(=O)N2CCC(C(=O)NCCCc3ccccc3)CC2)c2cc(Cl)ccc2O1 (stereo not drawn)	4%
COc1ccc(NC(=O)c2ccc(COc3ccccc3Br)o2)cc1OC	10%
CC(=O)c1ccc(N2CCN(C(=O)c3cc4cc5cc(C)ccc5nc4s3)CC2)cc1	2%
Cc1cc(C)c(-c2csc(Cc3nc(-c4cc5ccccc5oc4=O)cs3)n2)cc1C	?
COc1ccccc1C(=O)C1CCCN(C(=O)c2cc(CC(C)C)nc(C)n2)C1 (stereo not drawn)	3%
CCc1ccc(NC(=S)N(CCOC)C2CCN(C(C)=O)CC2)cc1	-2%
NC(=O)c1sc2nc3c(cc2c1N)CCC3	-14%
Cc1ccc(NC(=O)N2CCC(CN3CCCC3)CC2)c(C)c1	3%
COc1ccc(-c2nc(CS(=O)CC(=O)NCc3ccc4c(c3)OCO4)c(C)o2)cc1 (stereo not drawn)	10%
COC(=O)N1CCC2(CC1)CN(C(=O)Nc1cccc(F)c1)C2	0%
COc1ccc(NC(=O)CSc2nnnn2-c2ccccc2F)cc1	-5%
O=C(NCC1(N2CCOCC2)CCCCC1)c1ccc(S(=O)(=O)Nc2ccccc2F)cc1	0%
COc1ccccc1CNC(=O)COc1ccc(S(=O)(=O)N2CCOCC2)cc1C	-2%
CCN(CC)CCN(Cc1cc2ccc(C)cc2[nH]c1=O)C(=O)Nc1ccc(Cl)cc1	9%
COc1ccc(C(CNC(=O)c2ccc(N3CCCC3=O)cc2)N(C)C)cc1 (stereo not drawn)	0%
COc1ccc(CN(Cc2cccn2C)S(=O)(=O)c2ccc(C)cc2)cc1	-2%
O=C(CNC(=O)c1ccccc1)NCC1COc2ccccc2O1 (stereo not drawn)	9%
Cc1ccc(CC(=O)NCCC(=O)O)cc1	3%
CC(=O)Nc1ccc(N(C(=O)CNC(=O)c2ccco2)C(C(=O)NC2CCCC2)c2ccco2)cc1 (stereo not drawn)	2%
Cc1onc(-c2ccccc2)c1C(=O)OCC(=O)N(C)c1c(N)n(Cc2ccccc2)c(=O)[nH]c1=O	8%
COc1ccccc1CNCC(=O)N1CC(=O)Nc2ccccc21	-2%
Cc1cc(NC(=O)Nc2cc(Cl)ccc2C)no1	-3%

More entries follow:
SMILES	VDR inhibitor
CC(C)n1c(CNC(=O)c2ccccc2F)nnc1SCC(=O)c1ccc(F)cc1	7%
COc1ccc(Cl)cc1S(=O)(=O)N1CCCc2ccccc21	0%
CCN1CCCC1Cn1cnc2c([nH]c3cc(OC)ccc32)c1=O (stereo not drawn)	6%
O=C(O)CNS(=O)(=O)c1ccc2c3c(cccc13)C(=O)N2	-20%
CC1CN=C(c2cccn2Cc2ccc(F)cc2Cl)O1 (stereo not drawn)	3%
Cc1cccnc1NC(=O)c1ccc2nc(N)sc2c1	7%
Cc1nnc2c3ccccc3c(Cl)nn12	0%
CC1CC(=O)N(CC(=O)Nc2ccc(F)cc2F)c2ccccc2S1 (stereo not drawn)	8%
COc1ccc(N2C(=O)C3CCCN3C2c2cccs2)cc1 (stereo not drawn)	-5%
CN(CC(=O)Nc1ccccc1Cl)C(=O)CCNC(=O)Nc1ccccc1	-4%
CN(CC(=O)Nc1ccc(Cl)c(C(F)(F)F)c1)C(=O)c1cn2ccccc2n1	5%
COc1ccc(Cc2nc3ccc(C(=O)N(C)CCO)cc3o2)cc1	-4%
Cc1cccc(N/C(N)=N/c2nc(C(F)(F)F)cc(=O)[nH]2)c1C	-5%
COc1ccccc1C(CNC(=O)c1cccc(S(=O)(=O)Nc2ccc(F)cc2)c1)N1CCCC1 (stereo not drawn)	-10%
CCC(=O)N(CCc1ccccc1)Cc1cc2ccc(OC)cc2[nH]c1=O	-19%
COc1ccc(C(=O)NNC(=S)NC(=O)c2cc(-c3ccccc3)nc3ccccc23)cc1	-20%
COc1ccc(C(CC(=O)Nc2cc(OC)cc(OC)c2)n2cccc2)cc1 (stereo not drawn)	-7%
O=C(c1cc(-c2ccccc2)nc2ccccc12)N1CCCC1	-8%
Cc1cc(C)n(-c2cccc(CN(C)Cc3nc(-c4cnccn4)no3)c2)n1	10%
C=CCn1c(N2CCCC2)nc2c1c(=O)[nH]c(=O)n2C	0%
CC1CC(C)CN(C(=O)CCn2c(=O)oc3ccccc32)C1 (stereo not drawn)	-7%
CCC1CCCCN1C(=S)NC(=O)c1cc(Br)ccc1Cl (stereo not drawn)	8%
Cc1nc2c(C(=O)N3CCOCC3)cnn2c(C)c1Cc1ccc(Cl)cc1	9%
COC(=O)c1c(NC(=O)c2cccnc2)sc(C)c1C	-3%
COc1ccc(-n2c(=O)c(-c3ccc(F)c(F)c3)nc3cncnc32)cc1	-14%

Continued.
SMILES	VDR inhibitor
Cc1csc2nc(=O)c3ccccc3n12	4%
CCN(CC(=O)Nc1ccc(NC(C)=O)cc1)C(=O)CCCc1c[nH]c2ccccc12	-9%
O=C(CCc1ccccc1)N=C1SC2CS(=O)(=O)CC2N1Cc1ccc(F)cc1 (stereo not drawn)	38%[activator]
CCN(CC)S(=O)(=O)c1ccc(C(=O)NN(C)C2=NS(=O)(=O)c3ccccc32)cc1	15%
O=C1CSC(=Nc2cccc(C(=O)O)c2)N1	17%
CCN(CC(=O)Nc1ccccc1C(F)(F)F)C(=O)c1ccccc1SCC(=O)N1CCCC1	8%
CC(=O)c1cccc(Nc2c([N+](=O)[O-])c(=O)oc3ccccc23)c1	-3%
COC(=O)c1c(C)oc2c1cc(NS(=O)(=O)c1c(C)cc(C)cc1C)c1ccccc12	?
O=C(c1ccccc1)N1CCN=C1c1ccccc1	5%
Cc1cc(Cl)ccc1OCCCC(=O)NN	4%
CCOc1cc(NC(=S)Nc2ccccc2)c(OCC)cc1NC(=O)c1ccc(OC)cc1	0%
CCOc1ccc(CCNC(=O)c2cc3sc(CC)cc3n2C)cc1OCC	23%
O=C(Nc1nnc(-c2cccs2)s1)C1CC1	-12%
CC(C)CCN(C)C1CCN(S(=O)(=O)c2cccc(C(F)(F)F)c2)CC1	-5%
CCOCCCn1c(=S)[nH]c2cc(C(=O)NCCc3ccccc3)ccc2c1=O	-12%
CCNC(=S)N1CCN(c2nc(CC)nc3sc4c(c23)CCCC4)CC1	-8%
CC(=O)c1ccc(NC(=O)CSC2=Nc3ccccc3N=C(c3ccc(F)cc3)C2)cc1	2%
CN(C)[C@H]1C(=O)C(C(=O)NCN2CCCC2)=C(O)[C@]2(O)C(=O)C3=C(O)c4c(O)cccc4[C@](C)(O)[C@H]3C[C@H]12	?
CCOC(=O)C1CN(S(=O)(=O)c2cccs2)c2ccc(CC(=O)OC)cc2O1 (stereo not drawn)	17%
CCN(CC)S(=O)(=O)c1ccc2nnn(OCC(=O)Nc3cccc(C#N)c3)c2c1	2%
Cc1cccc(NC(=O)/C(C#N)=C/c2ccc(C)o2)c1	-1%
CCCCCN1C2=NCCN2c2ccccc21	-6%

Random excerpt: four entries already listed, in no set order.
SMILES	VDR inhibitor
O=C1CSC(=Nc2cccc(C(=O)O)c2)N1	17%
CC(=O)c1cccc(Nc2c([N+](=O)[O-])c(=O)oc3ccccc23)c1	-3%
CCN(CC)S(=O)(=O)c1ccc(C(=O)NN(C)C2=NS(=O)(=O)c3ccccc32)cc1	15%
Cc1cc(Cl)ccc1OCCCC(=O)NN	4%

These rows are one share of the data, so the mix of outcomes need not match the whole.
